Assay outcomes (PubChem BioAssay)
ClpP mod: qHTS Assay for Activators of ClpP; ATP-dependent Clp protease proteolytic subunit (Bacillus subtilis (strain 168)), P80244; purified B. subtilis ClpP, FRET peptide cleavage, 20 min; Potency, µM (series often up to 57.5 µM), for the others: at the top dose activity change, negative = active; 1.9% of 340,000 active; AID 651965, 2013; active = well fitted falling curve with a large enough effect; inconclusive = small, poorly fitted or top-dose-only effect; inactive = no such curve, though single readings can be large or run the other way; also: the source files actives as falling curves though it sought activators and does not explain the sign; nearly all actives have a fitted effect of over 65% in size; many hits overshoot -100%
Target sequence (P80244 whole entry, looked up): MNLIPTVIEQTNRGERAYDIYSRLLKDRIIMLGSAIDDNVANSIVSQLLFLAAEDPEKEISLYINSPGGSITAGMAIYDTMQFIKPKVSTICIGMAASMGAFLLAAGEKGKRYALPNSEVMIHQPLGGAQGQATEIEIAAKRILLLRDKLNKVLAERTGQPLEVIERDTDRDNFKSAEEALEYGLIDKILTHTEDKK
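ClpP 10 microg/mL final, pH 8 Tris/KCl buffer with BSA, glycerol, Tween-20; compound pinned in; FRET-FV substrate; RT 20 min; Ex320/Em430; ΔFRET vs ADEP 5.8 microM, DMSO, no enzyme.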
Numbers without * were called inactive; ? = inconclusive. Potency is read from the fitted curve at half-maximal effect.

| Molecule | ClpP mod |
| --- | --- |
| Cc1cc(F)ccc1-c1cc(C(=O)NC(C)C)[nH]n1 | 2.0% |
| CC(C)C[C@@H](CN1CCC[C@@H]1CN1C(=O)C(=O)NC[C@@H]1Cc1ccc(O)cc1)N1C[C@H](Cc2ccc(O)cc2)N(CC2CCCCCC2)C(=O)C1=O | 0.0% |
| CNc1cc(-c2cccc(OC)c2F)nc2ccnn12 | 4.1% |
| CC(C)(C)OC(=O)N1CCC[C@H]1C(=O)N1CCC[C@H]1C(=O)NCc1ccncc1 | 0.1% |
| COc1cc(OC)cc(-c2c(Sc3ccccc3)c3cc(-c4cnc(OC)nc4)ccc3n2C)c1 | ? |
| COc1ccc(S(=O)(=O)N[C@@H]2C=C[C@@H](CC(=O)N3CCc4ccccc4C3)O[C@@H]2CO)cc1 | 1.0% |
| CSc1ccc(OC2(C)CCN(Cc3cc4ccccc4o3)C2)cc1 (stereo not drawn) | -2.8% |
| O=C(C[n+]1cccc2cc(Cl)ccc21)c1ccc(Br)cc1 | -11.7% |
| N#Cc1cccc(C(=O)C(=O)N2CCN(C(=O)OCc3ccccc3)CC2)c1 | -0.8% |
| CNc1nc(-c2ccccc2)c(-c2ccccc2)s1 | 4.1% |
| O=C(C(O)c1ccccc1)N1CCN(S(=O)(=O)c2ccc(F)c(F)c2)CC1 (stereo not drawn) | 0.1% |
| CCNC(=O)C1CCCN(C(=O)c2ccc(C(F)(F)F)cc2)CC1 (stereo not drawn) | 2.3% |
| O=S1(=O)CC(N2CCSCC2)CN1Cc1cn(Cc2ccc(Cl)cc2)nn1 (stereo not drawn) | -3.2% |
| Cc1cc(N(C)C)cc(C)c1/C=C/c1ccnc2ccccc12 | 0.2% |
| CC(=O)C1=CCC(c2ccccc2)N(Cc2ccccc2)C1 (stereo not drawn) | 1.2% |
| CNc1nc(NCc2ccco2)c2ccccc2n1 | 4.3% |
| COc1ccc(C(=O)N2CCCCC2c2cc(C(=O)Nc3cccc(C#N)c3)no2)cc1 (stereo not drawn) | -2.5% |
| CC(C)C[C@H]1CN(CCCC[C@@H]2CNC(=O)C(=O)N2CC2CCCCC2)C(=O)C(=O)N1CCC1CCCCC1 | 0.9% |
| CC(=O)N1CCN(Cc2cc(=O)oc3cc(C)c(C)cc23)CC1 | -18.2% |
| O=C(Nc1ccccc1)c1cc(C2CCCCN2C(=O)c2ccccc2)on1 (stereo not drawn) | 0.6% |
| Fc1ccc(/C=C/c2nccc3ccccc23)cc1 | 2.5% |
| O=C1Nc2c(Cl)cccc2C1=O | 166.6% |
| CC(C)[C@H](NC(=O)OC(C)(C)C)c1cc(C(=O)NCCO)c(N)s1 | 0.2% |
| CCNC(=O)C1CCCN(C(=O)c2cccs2)CC1 (stereo not drawn) | 0.8% |
| COCCNc1nc(NCCCN2CCCC2=O)c2sccc2n1 | -21.7% |
| O=C1Nc2ccccc2N(C(=O)c2ccc(-c3ccccc3)cc2)C1c1nc2ccccc2[nH]1 (stereo not drawn) | ? |
| CC(C)c1ccc(NC(=O)C2(C)Cc3c(-c4ccccc4)ccnc3O2)cc1 (stereo not drawn) | -5.1% |
| C(=C\c1cnc2ccccc2n1)/c1ccc2c(c1)OCO2 | -10.4% |
| CCN(CC)c1ccc(-c2nnc(SCC(=O)NCc3ccco3)n2CC)cc1 | -3.6% |
| CCc1nc2ccc(C(=O)NCc3ccc(OC)cc3)cn2c1N(C)CCC(C)C | 0.2% |
| CC(=O)Nc1cccc(-c2ccnc3c2CC(C)(C(=O)NC(C)C)O3)c1 (stereo not drawn) | -25.5% |
| COc1ccc(-c2csc(C(C)(O)c3ccc(OC)cc3)n2)cc1 (stereo not drawn) | 1.0% |

In the list so far, 2 have an NH in an aromatic ring:
| Molecule | ClpP mod |
| --- | --- |
| Cc1cc(F)ccc1-c1cc(C(=O)NC(C)C)[nH]n1 | 2.0% |
| O=C1Nc2ccccc2N(C(=O)c2ccc(-c3ccccc3)cc2)C1c1nc2ccccc2[nH]1 (stereo not drawn) | ? |

Continued:
| Molecule | ClpP mod |
| --- | --- |
| CCCN(C)C1CN(Cc2cn(Cc3ccc(F)cc3)nn2)S(=O)(=O)C1 (stereo not drawn) | -1.4% |
| CCCCCCCCN1C(=O)[C@H](CC(=O)NCc2cccc(C(F)(F)F)c2)C[C@@]2(C(=O)OC)CC(C)(C)CC=C12 | 3.4% |
| O=C(C(=O)N1CCN(C/C=C/c2ccccc2)CC1)c1ccccc1 | -2.9% |
| CC(C)N1CCC(C)(C(=O)Nc2ccc(Cl)c(Cl)c2)C1 (stereo not drawn) | 0.4% |
| CCCNC(=O)c1cc(C2CCCCN2S(=O)(=O)c2ccc(OC)cc2)on1 (stereo not drawn) | -1.9% |
| Cc1cc2nc(-c3cccc(Br)c3)c(CC(C)(C)C)n2c(C)c1Br | -3.7% |
| CC(=O)Nc1ccc(/C=C/c2ccnc3ccccc23)cc1 | 31.7% |
| CCCN1CNc2c(c(=O)[nH]c(=S)n2CCc2ccc(OC)cc2OC)C1 | -0.9% |
| CCOC(=O)[C@]12CCCC=C1N(Cc1ccccc1)C(=O)[C@H](CC(=O)NCc1cccs1)C2 | ? |
| O=S1(=O)CC(N2CCCCC2)CN1Cc1cn(Cc2cccc(Cl)c2)nn1 (stereo not drawn) | -0.1% |
| Cc1cccc(C)c1NC(=O)C(c1ccnc2ccccc12)n1c(=O)c(-c2ccco2)nc2ccccc21 (stereo not drawn) | 4.5% |
| CC(C)CNc1ncnc2c1ncn2[C@H]1CN(CCN2CCOCC2)C[C@@H](CO)O1 | 0.3% |
| Clc1nc(NCc2ccco2)c2[nH]cnc2n1 | -0.8% |
| CCCOc1cccn2c(N(C=O)Cc3ccc(OC)cc3)c(CC)nc12 | -5.8% |
| CC(=O)Nc1cc(-c2cccc(C(=O)NCCN(C)C)c2)cn2c(-c3cccc(C(F)(F)F)c3)cnc12 | -23.6% |
| CC1(Oc2ccc(CC#N)cc2)CCN(Cc2ccccc2OC(F)F)C1 (stereo not drawn) | -2.7% |
| Cc1ccc(C)c(NCCCCC(=O)O)c1 | 1.3% |
| CCc1ncn(CCc2ccccc2OC)c1C(C)C | -3.7% |
| CC(=O)Oc1ccc(CN2C(=O)C(CCc3ccccc3)ON=C2c2cnccn2)cc1 (stereo not drawn) | -5.0% |
| O=S(=O)(c1ccc2c(c1)CCCC2)N1CCN(c2nc(-c3cccs3)nc3ccccc23)CC1 | 8.91µM* |
| CCOC(=O)C1(C)CCCN(C(=O)c2c(-c3ccccc3)noc2C)C1 (stereo not drawn) | -2.6% |
| Nc1nc2c(nc(N3CCOCC3)n2COCCO)c(=O)[nH]1 | 1.4% |
| COC(=O)c1cc(Cl)ccc1NCC(N)c1ccccc1 (stereo not drawn) | 5.3% |
| Nc1sc(Cc2ccccc2)cc1C(=O)c1c(-c2ccccc2)[nH]c2ccccc12 | -8.2% |

2 compounds picked at random from the list so far, as already listed:
| Molecule | ClpP mod |
| --- | --- |
| CC(=O)Oc1ccc(CN2C(=O)C(CCc3ccccc3)ON=C2c2cnccn2)cc1 (stereo not drawn) | -5.0% |
| Nc1nc2c(nc(N3CCOCC3)n2COCCO)c(=O)[nH]1 | 1.4% |

Next section:
| Molecule | ClpP mod |
| --- | --- |
| CC[C@H](C)C1OC(=O)[C@@H](C)[C@@H](CC)NC(=O)[C@H](C)N(C)C(=O)C(C)(C)C(=O)C(C)NC(=O)[C@H](Cc2ccc(OC)cc2)N(C)C(=O)[C@H](C(C)C)N(C)C(=O)CNC(=O)[C@H](CC(C)C)N(C)C(=O)CNC1=O (stereo partly drawn) | 0.1% |
| CSCCC(c1nc2ccccc2[nH]1)n1c(=O)c(-c2cc3ccccc3[nH]2)nc2ccccc21 (stereo not drawn) | ? |
| Cc1ccc(Cc2c(-c3cccc(Br)c3)nc3c(C)cc(Br)cn23)cc1 | -8.6% |
| CCCCNC(=O)c1c(N)[nH]c(C(=O)c2ccccc2)c1-c1ccc(Cl)cc1 | -0.1% |
| CCOC(=O)[C@]12CCCC=C1N(Cc1ccc(Cl)cc1Cl)C(=O)[C@H](CC(=O)NCCC(C)C)C2 | 0.4% |
| CC(C)c1ccc(CC(=O)N2CCC2(C)C(=O)Nc2cccc(C#N)c2)cc1 (stereo not drawn) | -2.7% |
| COc1cc2nc(NC3CCN(C)CC3)nc(NC3CCN(C)CC3)c2cc1OC | 4.5% |
| CCCCOC1NC(=O)NC(=O)C1(F)C(=O)OCC (stereo not drawn) | -1.6% |
| N#Cc1nc(-c2ccccc2)cc(-c2ccccc2)n1 | -12.0% |
| CC1(C(=O)NCc2ccccc2)CSCC(=O)N1C1CC1 (stereo not drawn) | -0.3% |
| OC1CCC(Nc2ccn3nc(-c4cccc(Cl)c4)cc3n2)CC1 (stereo not drawn) | 4.6% |
| CCOC(=O)C1CCCN(C(=O)COc2ccc(C(C)(C)C)cc2)CC1 (stereo not drawn) | 0.1% |
| COC(=O)C[C@@H]1C=C[C@@H](NC(=O)c2cccnc2)[C@@H](CO)O1 | -0.2% |
| O=C1Nc2ccccc2-n2nnnc2C1N1CCN(C(=O)c2ccco2)CC1 (stereo not drawn) | -2.6% |
| CCc1nc2ccc(C(=O)NCCOc3ccc(OC)cc3)cn2c1N(C)Cc1ccc(OC)cc1 | -2.7% |
| Cc1ccc(F)c(C(=O)N2CCCC(C)(C(=O)NS(=O)(=O)C3CC3)C2)c1F (stereo not drawn) | 4.6% |
| Cc1ccc(Cc2c(-c3ccccc3)nc3c4ccccc4ccn23)cc1 | 5.2% |
| O=C(NCc1ccccc1)C1c2ccccc2OCC(=O)N1CC(F)(F)F (stereo not drawn) | -2.0% |
| COC1OC(c2ccccc2)=C(c2ccc(C(N)=O)cc2)c2ccc(F)cc21 (stereo not drawn) | -0.5% |
| O=CNc1cc(-c2ccsc2)cn2c(-c3ccccc3)cnc12 | -12.3% |
| CCOC(=O)[C@]12CCCC=C1N(CCC1=CCCCC1)C(=O)[C@H](CC(=O)NCCc1ccccc1OC)C2 | -1.7% |
| COc1cc(C(=O)N2CCCCC2c2cc(C(=O)Nc3ccccc3)no2)cc(OC)c1C (stereo not drawn) | -11.7% |
| CCCC(=O)N1CCCC1(C)C(=O)Nc1ccc(-n2cccc2)cc1 (stereo not drawn) | -1.0% |
| CC[N+](C)(C)c1ccc(/C=C/c2ccnc3ccccc23)cc1 | -1.1% |
| CCCCNC(=O)c1nc(C2CCN(S(=O)(=O)c3cccc(C(F)(F)F)c3)CC2)oc1-c1ccccc1 | ? |
| COc1cccc(-c2cc(NC(C)=O)c3ncc(-c4ccc(OC)c(OC)c4)n3c2)c1 | -29.9% |
| CCc1nc2c(OCc3cc(Cl)cc(Cl)c3)cccn2c1N(C)C(=O)c1ccc(OC)cc1 | -1.6% |
| CC(=O)c1cccc(-c2cnc3c(NC=O)cc(-c4ccc(N(C)C)cc4)cn23)c1 | -0.8% |
| OCCCNc1ncnc2c1ncn2[C@H]1CN(Cc2ccncc2)C[C@@H](CO)O1 | 0.7% |
| CCCCCNc1ncnc2c(C)[nH]nc12 | -4.3% |
| CCc1nc2ccc(C(=O)NCCCn3ccnc3)cn2c1N(C)Cc1ccc(N(C)C)cc1 | -0.8% |
| COc1ccc(CC(N)c2csc(NC(=O)Nc3ccc(F)cc3)n2)cc1 (stereo not drawn) | 2.0% |

4 entries from above, sorted by length of the SMILES, highest first:
| Molecule | ClpP mod |
| --- | --- |
| CCc1nc2c(OCc3cc(Cl)cc(Cl)c3)cccn2c1N(C)C(=O)c1ccc(OC)cc1 | -1.6% |
| COc1cccc(-c2cc(NC(C)=O)c3ncc(-c4ccc(OC)c(OC)c4)n3c2)c1 | -29.9% |
| CCc1nc2ccc(C(=O)NCCCn3ccnc3)cn2c1N(C)Cc1ccc(N(C)C)cc1 | -0.8% |
| OCCCNc1ncnc2c1ncn2[C@H]1CN(Cc2ccncc2)C[C@@H](CO)O1 | 0.7% |

Continued:
| Molecule | ClpP mod |
| --- | --- |
| CC(=O)NCCNc1nc(NCc2ccccc2)nc2ccsc12 | -26.8% |
| NC(Cc1ccc(Cl)cc1)c1csc(Nc2ccc(C(F)(F)F)cn2)n1 (stereo not drawn) | -9.3% |
| O=C(OCc1ccccc1)N1CCC2CC1c1cc(N3CCN(C(=S)NCCc4ccccc4)CC3)ccc12 (stereo not drawn) | 1.0% |
| Cc1cc(C)n2c(Nc3c(C)cccc3C)c(-c3cccnc3)nc2n1 | -3.5% |
| CCOC(=O)C1(C)CCCN1C(=O)c1ccccc1OC (stereo not drawn) | -0.8% |
| O=C(C[C@H]1CC[C@H]2[C@@H](COC[C@H](O)CN2C(=O)c2ccccn2)O1)N1CCN(c2ccccc2)CC1 | 1.1% |
| CN1CCN(C(=O)C2Cc3c(-c4ccc5c(c4)OCO5)ccnc3O2)CC1 (stereo not drawn) | 4.9% |
| CCOc1cccc(-c2cnc3cccnn23)c1 | 4.5% |
| C(=C\c1ccnc2ccccc12)/c1ccnc2ccccc12 | 4.1% |
| CC1(c2nnnn2Cc2ccccc2)CCC(=O)N1CCc1c[nH]c2ccccc12 (stereo not drawn) | 2.1% |
| CC1(C(=O)Nc2ccc(F)c(Cl)c2)Cc2c(-c3ccccc3)ccnc2O1 (stereo not drawn) | 0.2% |
| CN1OC[C@@H]2CN(C(=O)Nc3ccccc3)[C@H](c3ccc(N4CCCCC4)cc3)C[C@@H]21 | -4.3% |
| CCCCS(=O)(=O)NC(=O)C1(C)CCN1C(=O)C/C=C/c1ccccc1 (stereo not drawn) | -2.7% |
| COc1ccc(C(=O)Nc2nc(OCC(F)(F)F)cnc2/C=C\c2ccccc2)c(OC)c1 | 4.8% |
| COc1ccccc1-c1cnc(C(O)c2ccc(F)c(C)c2)[nH]1 (stereo not drawn) | -5.2% |
| CC(C)C(=O)N1CCCC1(C)C(=O)Nc1ccc(-n2cccc2)cc1 (stereo not drawn) | 1.1% |
| CNc1cncc(-c2ccc(CN(C)C)cc2)n1 | 4.7% |
| COC(=O)[C@]12CCCCC=C1N(Cc1ccc3c(c1)OCO3)C(=O)[C@H](CC(=O)NCc1ccc(C)o1)C2 | -0.9% |

A portion of the library; the hit share may differ from the screen's.
